Mtb growth = Mycobacterium tuberculosis H37Rv growth inhibition, cell based, confirmatory dose response (AID 1949). hit rate 1.6% among 100,000. one-dose inhibition, % at 10 µg/mL; IC50 in µg/mL for titrated hits. most inactive calls were filed without a number and no value below 0 was filed;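 active = confirmed in a dose series; inconclusive = about 50% or more but not retested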;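 also: bacteria grown 7 days with compound before Alamar blue readout; 0% = untreated bacteria and 100% = reference antibiotic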
Starred values were filed as active, the others as inactive; i = inactive; ? = inconclusive. An excerpt (hit frequency here may not be typical).

The opening 7 records, to show the layout:
SMILES	Mtb growth
Cc1cc(C)c2c3c(c(-c4ccccc4)n2n1)c(=O)n(C)c(=O)n3C	i
CN(C)c1ccc(NC(=O)CSc2nc(-c3ccccc3)cc(=O)[nH]2)cc1	i
O=C(Nc1ccccc1)c1ccc(NC2CCCCC2)c([N+](=O)[O-])c1	i
CSc1cccc(NC(=O)c2cc3c(ccc4ccccc43)o2)c1	i
COc1ccc(CNC(=O)C2CC(=O)N(C3CCCCC3)C2)cc1 (stereo not given)	i
CC(C)CNC(=O)c1ccccc1NC(=O)CN(c1ccccc1Cl)S(C)(=O)=O	i
CCn1c(SCC(=O)Nc2cccc(C(F)(F)F)c2)nnc1-c1ccco1	i

All compounds of this part, repeating the preview:
SMILES	Mtb growth
Cc1cc(C)c2c3c(c(-c4ccccc4)n2n1)c(=O)n(C)c(=O)n3C	i
CN(C)c1ccc(NC(=O)CSc2nc(-c3ccccc3)cc(=O)[nH]2)cc1	i
O=C(Nc1ccccc1)c1ccc(NC2CCCCC2)c([N+](=O)[O-])c1	i
CSc1cccc(NC(=O)c2cc3c(ccc4ccccc43)o2)c1	i
COc1ccc(CNC(=O)C2CC(=O)N(C3CCCCC3)C2)cc1 (stereo not given)	i
CC(C)CNC(=O)c1ccccc1NC(=O)CN(c1ccccc1Cl)S(C)(=O)=O	i
CCn1c(SCC(=O)Nc2cccc(C(F)(F)F)c2)nnc1-c1ccco1	i
Cc1ccccc1C(=O)NC(=S)Nc1ccc(Br)cc1C(=O)O	i
CCCn1c2ccccc2c2nnc(SC(C)C(=O)Nc3ccc(C(C)=O)cc3)nc21 (stereo not given)	i
Brc1ccccc1C=NN1CCN(C2c3ccccc3-c3ccccc32)CC1	i
CS(=O)(=O)N(CC(=O)Nc1cccc(Br)c1)c1cccc(Cl)c1	0%
Cc1ccc(OCC(=O)N2CCN(c3cccc(Cl)c3)CC2)c(C)c1	i
CC(C)c1ccc(OCC(=O)Nc2ccccc2C#N)c(Br)c1	i
Cc1ccc(Cl)cc1N1CCN(C(=O)c2ccc(-c3ccccc3)cc2)CC1	i
COC(=O)c1sccc1NC(=O)c1cc2ccccc2oc1=O	27%
CN(C)CCSc1nc2ccccc2c(=O)n1-c1ccccc1	i
CCCCNS(=O)(=O)c1ccc(OC)c(Cl)c1Cl	2%
CCN(CC)S(=O)(=O)c1cc(OC)c(C)cc1C	i
Cc1cc(O)ccc1NC(=O)c1ccccc1	i
O=C(c1cccc(S(=O)(=O)N2CCOCC2)c1)N1CCN(c2ccc(F)cc2)CC1	i
Cc1cccc(NC(=O)c2cncc(Br)c2)c1C	i
CC(C)C(=O)Nc1cccc(NC(=S)NC(=O)c2cccs2)c1	0%
COc1cccc(N2C(=O)CC(N3CCN(Cc4ccccc4Cl)CC3)C2=O)c1 (stereo not given)	1%
COC(=O)c1ccc(NC(=O)CSc2nnc(NC(=O)c3ccccc3F)s2)cc1	8%
CC1=C(C(=O)OCc2ccccc2)C(c2ccco2)C2=C(CC(C)(C)CC2=O)N1 (stereo not given)	i

Further compounds
SMILES	Mtb growth
COc1ccccc1C(=O)NC(=S)Nc1ccc(N2CCCC2)cc1	i
COc1ccc(N2CCN(CC(O)COc3ccc4c(c3)OCO4)CC2)cc1 (stereo not given)	1%
COc1ccc(OCC(=O)N2CCC(Cc3ccccc3)CC2)cc1	i
CCN(CC)C(=O)c1sc(NC(=S)Nc2ccccc2Oc2ccccc2)c(C(=O)OC)c1C	0%
CC1(C)COC2(OC1)C(=O)Nc1ccccc12	i
COc1ccc(C(=O)NC(C)C)cc1Br	i
CC(C)c1cccc(C(C)C)c1NC(=O)/C=C/c1cccc([N+](=O)[O-])c1	5%
CCCNC(=O)C(=O)NC(CC)CO (stereo not given)	i
CC(C)(C)c1ccc(S(=O)(=O)NCc2ccccn2)cc1	7%
CN(c1c[nH]c(=O)[nH]c1=O)C1CCCCC1	i
CSc1cccc(NC(=O)CN(c2cc(C)cc(C)c2)S(=O)(=O)c2ccccc2)c1	i
CCCCNCCOCCOc1cccc(OCC)c1	i
COc1ccc(C(=O)N2CC3(C)CC2CC(C)(C)C3)cc1[N+](=O)[O-] (stereo not given)	i
Cc1cc(C)cc(NC(=O)Nc2ccccc2)c1	i
CCCCc1ccc2nc(NC(=O)c3ccccc3[N+](=O)[O-])sc2c1	i
Cc1cc(Br)c(NC(=O)CSc2ccc(Cl)cc2)cc1C	i
COc1ccccc1C(=O)NC(=S)Nc1ccccc1N1CCOCC1	i
c1ccc2c(N3CCCCC3)nc(N3CCCC3)nc2c1	40µg/mL*
COc1ccc(CC(=O)Nc2cccc(-c3cn4cccc(C)c4n3)c2)cc1	i
CC(Nc1cc(=O)n(C)c(=O)[nH]1)c1ccccc1 (stereo not given)	i
COc1cc(NC(=O)CC23CC4CC(CC(C4)C2)C3)c(OC)cc1Cl	13%
O=C1CC(n2c(CCc3ccccc3)nc3ccccc32)C(=O)N1c1ccc(F)cc1 (stereo not given)	i
O=C(c1cccnc1)N1CCN(C(=O)c2sc3cc(Cl)ccc3c2Cl)CC1	i
O=C(c1ccc2c3c(cccc13)CC2)N1CCN(c2ncccn2)CC1	i
O=C(NC1CC2CCC1C2)c1ccccc1Cl (stereo not given)	i

The list goes on.
SMILES	Mtb growth
CSc1nsc(SCC(=O)c2ccccc2)n1	4.5µg/mL*
COc1cccc(Oc2ccc(N3C(=O)c4cccc5cccc(c45)C3=O)cc2)c1	i
O=C(c1ccco1)N1CCN(Cc2c(O)ccc3ccccc23)CC1	i
N#C/C(=C\c1ccc(-c2cc(Cl)cc(Cl)c2)o1)c1nn(CCO)c(N)c1C#N	i
Cc1cc(=O)[nH]c(Nc2ccc(Cl)cc2)n1	i
CC(=O)N1c2ccccc2C(CSc2nnc(C)s2)=CC1(C)C	1%
O=C(NC(=S)Nc1cc(C(F)(F)F)ccc1Cl)c1ccc(-c2ccccc2[N+](=O)[O-])o1	0%
CCC(C)n1c(=N)c(S(=O)(=O)c2ccc(Cl)cc2)cc2c(=O)n3cccc(C)c3nc21 (stereo not given)	i
Fc1ccc(-n2nnnc2SCc2ccccn2)cc1	i
COc1cc(CNc2ccc(S(N)(=O)=O)cc2)ccc1OCc1ccccc1Cl	20%
C=CCOc1ccc(CNCc2cccnc2)cc1	i
COc1ccc(NC(=O)CSc2n[nH]c(-c3ccco3)n2)cc1	i
CN(C)CCNC(=O)Nc1ccc(F)cc1F	i
O=C(NCCc1c[nH]c2ccccc12)c1cc2n(n1)C(C(F)(F)F)CC(c1ccco1)N2 (stereo not given)	?
Cc1ccc(/C(N)=N/OC(=O)Cc2cccc3ccccc23)cc1	26%
O=C(CSc1nc2ccccc2s1)N1N=CCC1c1ccccc1 (stereo not given)	i
CC(C)(C)c1ccc(OCC(=O)NCC2CCCO2)c(Br)c1 (stereo not given)	i
Cc1cc(N2CCCC2=O)c(N)cc1N	i
CS(=O)(=O)N(CC(=O)N1CCN(c2cccc(Cl)c2)CC1)c1cccc(Cl)c1	3%
CCOc1ccc2ccccc2c1C(=O)N1CCN(c2ccccc2)CC1	i
Cc1ccc(S(=O)(=O)N(Cc2ccccc2)Cc2ccco2)cc1	i
CC(=O)c1cccc(NS(=O)(=O)c2ccc(C)cc2)c1	i
O=C(CN(c1ccc(F)cc1)S(=O)(=O)c1ccc2c(c1)OCCO2)NCc1ccco1	i
COc1cccc(Nc2nc(-c3cccnc3)nc3ccccc23)c1	4%
O=C(C1c2ccccc2Oc2ccccc21)N1CCOCC1	0%

6 compounds drawn at random from the list so far, as already listed:
SMILES	Mtb growth
CSc1nsc(SCC(=O)c2ccccc2)n1	4.5µg/mL*
CC(=O)c1cccc(NS(=O)(=O)c2ccc(C)cc2)c1	i
CN(C)CCNC(=O)Nc1ccc(F)cc1F	i
Fc1ccc(-n2nnnc2SCc2ccccn2)cc1	i
CC(C)(C)c1ccc(OCC(=O)NCC2CCCO2)c(Br)c1 (stereo not given)	i
Cc1ccc(S(=O)(=O)N(Cc2ccccc2)Cc2ccco2)cc1	i

Continuation.
SMILES	Mtb growth
COc1ccc(NC(=O)CN(c2ccc(Cl)cc2C)S(=O)(=O)c2ccc(C)cc2)c(OC)c1	6%
COc1cc([N+](=O)[O-])ccc1NC(=O)c1cccc(Cl)c1Cl	i
C=CCc1cc2c(C)cc(=O)oc2c(I)c1O	i
CC(=O)c1cccc(NC(=S)NCc2ccco2)c1	i
CC1CCCC(C)N1C(=O)C(Cl)(Cl)Cl (stereo not given)	i
C=CCNC(=S)N1CCC(C(N)=O)CC1	i
O=C(NCC1CCCO1)c1cccc(I)c1 (stereo not given)	i
COc1ccc(CC(=O)Nc2ccc(-c3csc(C)n3)cc2)cc1	i
Cc1ccc(NC(=O)CSc2nc(=O)cc(N)n2-c2ccccc2)cc1	i
CCN(CC)CCN(C)Cc1ccc(OC)c(OC)c1	0%
CC(=O)NS(=O)(=O)c1ccc(NC(=O)NC2CCCCC2)cc1	i
O=C(Cc1ccccc1)N1CCC(N2CCCCCC2)CC1	i
CN(C(=O)Nc1ccc(F)cc1)c1ccccc1	i
O=C(Nc1ccc2c(c1)OCO2)c1ccc2c(c1)C(=O)N(Cc1ccco1)C2=O	i
COc1ccc2nc(SCC(=O)Nc3cccc([N+](=O)[O-])c3)[nH]c2c1	19%
CC(=O)Nc1ccc(S(=O)(=O)Nc2c(C)[nH]c(=O)[nH]c2=O)cc1	i
O=C(CSc1nc2cc(C(F)(F)F)ccc2s1)NCC(=O)c1ccccc1	i
O=S(=O)(c1ccc2ccccc2c1)N1CCN(c2ncccn2)CC1	i
COC(=O)Nc1cc(C(F)(F)F)ccc1N1CCN(c2ccccc2)CC1	i
COc1ccc(N(CC(=O)Nc2cccc(F)c2)S(=O)(=O)c2ccccc2)c(OC)c1	3%
COC(=O)Cc1c(C)c2cc(Cl)c(OCc3c(F)cccc3Cl)cc2oc1=O	i
COc1ccc(C2C(C(=O)OCC3CCCO3)=C(C)NC3=C2C(=O)CC(c2ccc(F)cc2)C3)cc1 (stereo not given)	i
COc1ccc(CN2CCC(C(=O)N3CCN(Cc4ccccc4)CC3)CC2)cc1OC	5%
O=C(COc1ccc(Br)cc1)NC(=S)Nc1ccccc1N1CCOCC1	i
COC(=O)c1cc(C(=O)OC)cc(S(=O)(=O)O)c1	i

Ordered by length of the SMILES (lowest first): part of the list above
SMILES	Mtb growth
CN(C(=O)Nc1ccc(F)cc1)c1ccccc1	i
CC(=O)NS(=O)(=O)c1ccc(NC(=O)NC2CCCCC2)cc1	i
O=C(COc1ccc(Br)cc1)NC(=S)Nc1ccccc1N1CCOCC1	i
O=C(Nc1ccc2c(c1)OCO2)c1ccc2c(c1)C(=O)N(Cc1ccco1)C2=O	i

(more compounds)
SMILES	Mtb growth
Cn1nc(C(=O)NCc2cccnc2)c2ccccc2c1=O	i
O=C(c1ccco1)N1CCN(C(=O)C2CC(c3ccc(Cl)c(Cl)c3)=NO2)CC1 (stereo not given)	i
CCn1c(C)nc2cc(C(=O)N(C)C)ccc21	i
CC(=O)Nc1ccc(Nc2ncnc3c2cnn3-c2ccc(C)cc2C)cc1	3%
COc1ccc(-n2c(=O)c3c(n4c(=S)[nH]nc24)-c2ccccc2CC32CCCC2)cc1	i
Cc1ccc(C(=O)COC(=O)c2cc(=O)[nH]c3ccccc23)cc1C	i
COc1ccc(CN2CCN(c3ncnc4c3cnn4-c3ccccc3)CC2)cc1	1%
Cc1cc(NC(=O)c2sc3ccccc3c2Cl)c(C)cc1I	3%
Cc1cc(Cl)ccc1NC(=O)Cc1cccs1	i
COc1ccc(/C=C2/C(=O)NC(=O)N(c3ccc(Cl)cc3)C2=O)c(OC)c1OC	i
COc1ccc(C(=O)COC(=O)C(CCSC)NC(=O)c2ccccc2)cc1 (stereo not given)	i
O=C(c1ccc(S(=O)(=O)N2CCOCC2)cc1)N1CCN(c2ncccn2)CC1	4%
Cc1cc(NC(=O)C2CC(=O)N(c3ccccc3Cl)C2)ccc1Br (stereo not given)	i
O=C(NCc1ccc(-c2nc3ccccc3s2)cc1)c1cc(Br)ccc1Cl	i
O=C(CCN1C(=O)C2C3CCC(C3)C2C1=O)Nc1ccccc1C(F)(F)F (stereo not given)	i
Cc1ccc(S(=O)(=O)Cc2ccc(Cl)c(Cl)c2)cc1	2%
Cn1nc(C(=O)Nc2ccc(F)cc2)c2ccccc2c1=O	i
O=C(c1cccs1)n1nc(-c2ccco2)nc1SCc1ccccc1	2%
COC(=O)c1ccc(C(=O)OC)c(NC(=O)CCCC(=O)O)c1	i
C=CCn1c(COc2ccccc2)nnc1SCC(=O)Nc1c(C)cc(C)cc1C	i
CS(=O)(=O)N(CC(=O)N1CCN(c2ccccc2F)CC1)c1cccc(F)c1	i
CCSc1nc2sc3c(c2c(=O)n1CC)CCCC3	i
COCC(=O)Nc1nc(-c2ccccc2)ns1	i
CCOc1ccccc1C(=O)ON1C(=O)c2ccccc2C1=O	2%
Cc1cccc(NC(=O)c2ccc(NCCO)c([N+](=O)[O-])c2)c1	7%

Following part:
SMILES	Mtb growth
CCN(Cc1ccccc1)C(=O)c1ccc([N+](=O)[O-])c(C)c1	0%
Cc1ccc(OCCCCN2CC(C)OC(C)C2)c(C)c1 (stereo not given)	1%
CS(=O)(=O)N(CC(N)=O)c1cccc([N+](=O)[O-])c1	i
COCCSc1ccccc1C(=O)NCCCn1ccnc1	i
C=CCn1c(SCC(=O)c2ccc(Br)cc2)nnc1-c1ccco1	i
CN(C(=O)N1CCN(c2ccccn2)CC1)c1ccccc1	i
COc1ccc(OCC(Cn2cnc3cc(C)c(C)cc32)OC(C)=O)cc1 (stereo not given)	1%
Clc1ccc(-c2nc3ccccc3c3nncn23)cc1	i
CC(C)C(=O)NCCc1nc2ccccc2n1CCOc1ccc(Cl)cc1	0%
CNC(=S)Nc1ccc(Br)cc1Cl	i
COc1cc([N+](=O)[O-])ccc1NC(=O)NCc1cccnc1	i
CCOc1ccccc1NC(=O)Nc1ccc2c(c1)OCO2	i
O=C(CSc1n[nH]c(-c2ccco2)n1)N1CCOCC1	i
Cc1ccc(C(=O)NC(=S)Nc2ccc3c(c2)OCCO3)c(C)c1	6%
CCCC(=O)Nc1ccccc1NC(=O)COc1ccc(Br)cc1Cl	i
C=CCn1c(COc2ccc(Cl)cc2)nc2ccccc21	i
Cc1cc(CSc2ccccc2)ccc1NC(=O)CCSc1ccccc1	i
